miR-21 reporter = raises the signal of a miR-21 reporter | HeLa miR-21 FLuc reporter, luciferase, 48 h | Potency, µM (series often up to 38.3 µM), for the others: at the top dose reporter change, positive = more light | 340,000 tested, under 10 active; active = well fitted rising curve with a large enough effect; inconclusive = small, poorly fitted or top-dose-only effect; inactive = no such curve, though single readings can be large or run the other way;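 further: % of control where 0% means no effect; miR-21 action dims this reporter so a rising signal means less miR-21 action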
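HeLa miR-21-FLuc reporter line, endogenous miR-21; 2000 cells/well in DMEM/10% FBS; compound titration up to ~40uM final, 48 h, 37 degree Celsius; luciferase detection reagent, 15 min lysis, CCD luminescence.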
The depositor's hits bear a star; ? = inconclusive. This is a subset. The share of hits here may be higher or lower than overall.

smiles	miR-21 reporter
CCOc1ccc(-c2c(C)nn3c(C)c(C(=O)NC(C)c4ccccc4)cnc23)cc1OCC (stereo not drawn)	5.1%
COc1ccccc1NC(=O)c1ccc(COc2ccc(C)c(C)c2)o1	-32.9%
COc1cc(NC(=O)Nc2cccc(-c3noc(C)n3)c2)cc(OC)c1OC	19.4%
Fc1ccc(Nc2nc(-c3cccc(Cl)c3)c3c(n2)-c2ccccc2OC3)c(F)c1	-19.5%
COc1ccc2c(CNCCc3ccccc3C)c(C(=O)O)n(Cc3ccccc3C)c2c1	2.1%
O=C(CSc1nnc2[nH]c(=O)cc(-c3ccccc3)n12)Nc1ccccc1C(F)(F)F	-19.1%
COc1cc(C2Nc3c(C)cc(C)cc3-c3cc(C)nn32)cc(OC)c1O (stereo not drawn)	14.1%
CCCCN(C)C(=O)Cn1c(SCC(=O)Nc2ccc(C)c(C)c2)nc2ccccc21	4.5%
CCOC(=O)C1CCCN(C(=O)c2[nH]c3ccccc3c2Sc2ccc(Cl)cc2)C1 (stereo not drawn)	-6.9%
Cc1cc(C)c2c(=O)c3c(oc2c1)C(=O)N(Cc1ccco1)C3c1ccc(F)cc1 (stereo not drawn)	1.5%
CCCNC(=O)c1cc2n(n1)CCCN(Cc1ccc(C)cc1)C2=O	-4.6%
COc1ccc2ncc3c(-c4ccc(C)c(C)c4)nn(CC(=O)Nc4ccccc4)c3c2c1	-13.3%
Cc1ccc(C)c(CN2C(=O)c3ccccc3S(=O)(=O)c3ccc(C(=O)N4CCc5ccccc54)cc32)c1	5.2%
Cc1ccc2c(=O)cc(C(=O)NCc3ccccc3)oc2c1	12.1%
COc1ccc(-n2cc(-c3ccc4c(c3)OCO4)n(CC(=O)Nc3cc(Cl)ccc3C)c2=O)cc1	-13.6%
Cc1nc2ccccn2c(=O)c1NC(=O)c1ccc(C(F)(F)F)cc1	-9.3%
CCc1ccc(NC(=O)CC2C(=O)N(c3cccc(C)c3)C(=O)N2Cc2cccs2)cc1 (stereo not drawn)	4.6%
O=C(c1cccs1)N(Cc1cccnc1)c1nc2c(Cl)cccc2s1	4.8%
CCS(=O)(=O)C1=NN2C(=N)/C(=C\c3ccc(OS(=O)(=O)c4ccccc4)c(OC)c3)C(=O)N=C2S1	-7.1%
Cc1ccc(-c2noc(-c3ccc(NC4CCCC4)c([N+](=O)[O-])c3)n2)cc1	-2.3%
CC(C)Sc1nc2sc3c(c2c(=O)n1-c1ccccc1)CCCC3	-14.7%
COc1ccc(-c2c(C#N)c(SCC(=O)Nc3ccccc3C)nc(C)c2C(=O)Nc2ccccc2)cc1OC	-3.5%
CCSc1nc2c([nH]c3ccccc32)c(=O)n1-c1ccc(OC)cc1	-1.8%
CC(=O)N1CCCc2cc(S(=O)(=O)N3CCCC(C(=O)NC(C)C)C3)ccc21 (stereo not drawn)	2.0%
Cc1cc(NC(=O)CSc2ncc(C(=O)Nc3ccc(Cl)cc3)c(=O)n2C)no1	0.6%
Clc1cccc(-n2ncc3c(NCCCN4CCOCC4)ncnc32)c1	-36.2%
O=C(NC1CCCCC1)c1ccc(CSc2nc3ccncc3n2Cc2ccccc2F)cc1	-17.4%
COc1cccc(Cc2nc3ccccc3nc2SCC(=O)N2CCc3ccccc32)c1	-1.0%
Cc1ccc(N(CC(=O)N2CCN(c3ccc(Cl)cc3)CC2)S(=O)(=O)c2c(C)noc2C)cc1	16.5%
O=S(=O)(Nc1cccc(-c2ccc(N3CCCCC3)nn2)c1)c1cccs1	-24.9%
COc1ccc(NC(=O)c2cnc(SCC(=O)Nc3nc4ccc(C)cc4s3)n(C)c2=O)cc1	-19.4%
CC1=C(C(=O)N2CCCCC2)C(c2cccc(Cl)c2)n2c(nc3ccccc32)N1 (stereo not drawn)	2.2%
COc1cc(C)c(Cl)cc1S(=O)(=O)NCCc1c(C)[nH]c2ccccc12	25.3%
COc1ccccc1CNC(=O)c1ccc2c(c1)CCN2S(=O)(=O)c1ccc(Cl)cc1	6.6%
Cc1cc(C)cc(NC(=O)C(=O)NCC(c2cccnc2)N2CCN(c3ccccc3)CC2)c1 (stereo not drawn)	-3.3%
Cc1ccc(Cl)cc1NC(=O)Cn1c(=O)n(CCC(=O)NCc2ccc3c(c2)OCO3)c(=O)c2sccc21	-22.4%
Cc1ccc(C)c2sc(NC(=O)c3ccc(S(=O)(=O)N4CCCC4)cc3)nc12	0.0%
CCc1ccccc1NC(=O)c1cc2nc(-c3ccc(OC)c(OC)c3)cc(C(F)(F)F)n2n1	-0.9%
O=C(COc1ccccc1[N+](=O)[O-])N1CCC(c2nc3ccccc3o2)CC1	1.5%
CCOc1ccc(-c2nn(CC(=O)NC3CCCC3)c3c2cnc2ccc(F)cc23)cc1	-36.0%
Cc1ccccc1NS(=O)(=O)c1ccc2[nH]cc(C(=O)NCCc3ccccc3)c(=O)c2c1	-0.2%
CC(=O)NC1CC(=O)N(c2ccc3c(c2)OCCO3)C1 (stereo not drawn)	-2.6%
CCc1ccccc1N(CC)C(=O)C(=O)Nc1ccc2nc3n(c(=O)c2c1)CCCCC3	15.9%
O=C(c1ccc(CSc2nc3ccncc3n2Cc2ccccc2)cc1)N1CCCCCC1	-7.8%
Cc1ccc(CNC(=O)c2ccc(N3CCCC3)c(NC(=O)Nc3ccc(F)c(Cl)c3)c2)cc1	15.3%
Cc1cccc(-c2nnc3n(CCc4ccccc4)c(=O)c4ccccc4n23)c1	-0.5%
COc1ccc(Nc2cc(C(=O)NC3CCCC3)c3ccccc3n2)cc1	7.1%
Cc1ccc(-c2noc(CNS(=O)(=O)c3ccc(F)cc3)n2)cc1	-0.1%
CCc1nn(C(CC)C(=O)NCc2ccc(F)cc2)c(=O)c2cc3occc3n12 (stereo not drawn)	-7.8%
COc1ccc(CCNC(=O)CCc2cn(Cc3ccccc3Cl)c3ccccc23)c(OC)c1	-1.7%
COC(=O)c1c(NC(=O)COc2cc(C)ccc2C(C)C)sc2c1CCC(C)C2 (stereo not drawn)	-1.4%
Cc1nc(-c2ccc(Cl)cc2)sc1CCNC(=O)C(=O)Nc1ccc(F)cc1F	-15.4%
CCCCc1nn2c(=O)cc(COC(=O)c3ccccc3NC(=O)c3cccc(C)c3)nc2s1	-1.8%
Cn1c(=O)c2c(SCC(=O)NCc3ccco3)nc(-c3ccccc3)nc2n(C)c1=O	-1.5%
CCS(=O)(=O)c1ncc(N(Cc2ccc(F)cc2)Cc2ccco2)c(C(=O)Nc2cc(C)ccc2C)n1	3.3%
CCc1ccc(-n2nc3ccc(NC(=O)c4ccc(C#N)cc4F)cc3n2)cc1	-1.9%
CN1CCN(c2ncc3c(n2)CCN(Cc2cc(Br)cs2)C3)CC1	1.1%
CCOC(=O)c1ccc(NC(=O)CN2c3ccccc3S(=O)(=O)c3ccccc32)cc1	?
CCOC(=O)c1cnc2c(ccc3ccccc32)c1Nc1ccc(OC)cc1OC	21.5%
COc1cc(C(=O)NC2(C(F)(F)F)C(=O)NC(C)=C2C#N)cc(OC)c1OC (stereo not drawn)	3.5%

Nothing new here: entries from further up.
smiles	miR-21 reporter
CC(=O)NC1CC(=O)N(c2ccc3c(c2)OCCO3)C1 (stereo not drawn)	-2.6%
CCc1ccccc1N(CC)C(=O)C(=O)Nc1ccc2nc3n(c(=O)c2c1)CCCCC3	15.9%
O=C(c1ccc(CSc2nc3ccncc3n2Cc2ccccc2)cc1)N1CCCCCC1	-7.8%
Cc1ccc(CNC(=O)c2ccc(N3CCCC3)c(NC(=O)Nc3ccc(F)c(Cl)c3)c2)cc1	15.3%
Cc1cccc(-c2nnc3n(CCc4ccccc4)c(=O)c4ccccc4n23)c1	-0.5%
COc1ccc(Nc2cc(C(=O)NC3CCCC3)c3ccccc3n2)cc1	7.1%
Cc1ccc(-c2noc(CNS(=O)(=O)c3ccc(F)cc3)n2)cc1	-0.1%
CCc1nn(C(CC)C(=O)NCc2ccc(F)cc2)c(=O)c2cc3occc3n12 (stereo not drawn)	-7.8%
COc1ccc(CCNC(=O)CCc2cn(Cc3ccccc3Cl)c3ccccc23)c(OC)c1	-1.7%
COC(=O)c1c(NC(=O)COc2cc(C)ccc2C(C)C)sc2c1CCC(C)C2 (stereo not drawn)	-1.4%
Cc1nc(-c2ccc(Cl)cc2)sc1CCNC(=O)C(=O)Nc1ccc(F)cc1F	-15.4%
CCCCc1nn2c(=O)cc(COC(=O)c3ccccc3NC(=O)c3cccc(C)c3)nc2s1	-1.8%
Cn1c(=O)c2c(SCC(=O)NCc3ccco3)nc(-c3ccccc3)nc2n(C)c1=O	-1.5%
CCS(=O)(=O)c1ncc(N(Cc2ccc(F)cc2)Cc2ccco2)c(C(=O)Nc2cc(C)ccc2C)n1	3.3%
CCc1ccc(-n2nc3ccc(NC(=O)c4ccc(C#N)cc4F)cc3n2)cc1	-1.9%
CN1CCN(c2ncc3c(n2)CCN(Cc2cc(Br)cs2)C3)CC1	1.1%
CCOC(=O)c1ccc(NC(=O)CN2c3ccccc3S(=O)(=O)c3ccccc32)cc1	?
CCOC(=O)c1cnc2c(ccc3ccccc32)c1Nc1ccc(OC)cc1OC	21.5%
COc1cc(C(=O)NC2(C(F)(F)F)C(=O)NC(C)=C2C#N)cc(OC)c1OC (stereo not drawn)	3.5%

More records
smiles	miR-21 reporter
Cc1cc(N2CCCCC2)nc2ccc(NC(=O)/C=C/c3ccccc3Cl)cc12	-5.7%
COc1ccccc1NC(=O)CSc1nc2c(oc3ccccc32)c(=O)n1Cc1ccco1	-0.8%
COc1cc(NC(=O)CCc2c(C)nn(-c3ccc4nnc(C)n4n3)c2C)cc(OC)c1OC	3.7%
Cc1ccccc1CNC(=O)c1cccc(NC(=O)c2nsc3ccccc23)c1	-48.8%
CCCCOc1ccc(C(=O)Nc2cc(-c3cn4cccnc4n3)ccc2OC)cc1	-1.7%
CCOc1ccc2nc(N3CCCC(C(=O)Nc4ccc(OC)c(Cl)c4)C3)sc2c1 (stereo not drawn)	-20.3%
CCN(CCCNC(=O)CSc1cc(=O)n(C)c2cc(Cl)ccc12)c1ccccc1	3.4%
COc1cc(C(=O)NC2CC(=O)N(c3cccc(F)c3)C2)cc(OC)c1OC (stereo not drawn)	3.5%
O=C(Cn1ncc2c([nH]c3ccccc32)c1=O)NCc1cccc(Cl)c1	-1.7%
COc1cccc(CNC(=O)Cn2ncn3nc(-c4cccs4)cc3c2=O)c1	-20.4%
Cc1ccc(NC(=O)Cn2cc(S(=O)(=O)c3ccc(C)cc3)c(=O)c3cc4c(cc32)OCO4)cc1	-1.0%
CN(C(=O)Cn1cc(S(=O)(=O)Cc2ccccc2Cl)c2ccccc21)c1ccccc1	-9.9%
CN(C)CCNC(=O)c1ccc(Cn2c(SCc3ccc(F)cc3)nc3cccnc32)cc1	-4.6%
CCn1c(C)c(C)c2cc(C(=O)NCc3ccc(OC)cc3OC)ccc21	-8.1%
CCOc1ccccc1C(=O)Nc1cc2c(cc1C)n(C)c(=O)c(=O)n2C	0.3%
COc1ccc(-c2nc3ccccc3o2)cc1NC(=O)COc1ccc(C)c(C)c1	-20.9%
Cc1ccc(-c2c(C(=O)N3CCN(c4ccc(F)cc4)CC3)oc(=O)c3ccccc23)cc1	-3.0%
COCCNC(=O)c1ccc(Cn2c(SCC(=O)NC(C)C)nc3ccccc3c2=O)cc1	3.5%
CCOc1ccc(NC(=O)c2c(NC(=O)Cc3ccccc3)sc3c2CCCC3)cc1	0.7%
CCOc1ccc(S(=O)(=O)N2CCC(c3ccncc3)CC2)cc1	28.0%
COc1cccc(CNC(=O)Cc2ccc(NC(=O)N3CCCCc4ccccc43)cc2)c1OC	-3.1%
CCOC(=O)C1CCCN(C(=O)Cn2nc(CC)n3c(cc4occc43)c2=O)C1 (stereo not drawn)	-11.5%
Cc1ccc(Nc2c(C(C)C)c(C)c(C#N)c3nc4ccccc4n23)cc1	?

A few values from the entries so far:
miR-21 reporter, COc1ccccc1NC(=O)CSc1nc2c(oc3ccccc32)c(=O)n1Cc1ccco1 = -0.8%
miR-21 reporter, Cc1ccc(CNC(=O)c2ccc(N3CCCC3)c(NC(=O)Nc3ccc(F)c(Cl)c3)c2)cc1 = 15.3%

Screening results deposited in PubChem by National Center for Advancing Translational Sciences (NCATS).
